RGS16-Gao = regulators of human RGS16-Galphao interaction; O15492+P09471; bead-based flow cytometry RGS16-Galphao binding, fluorescence; actives lie on both sides; binding response (% of control), % at 10 µM; actives 0.38% (n = 220,000);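 active = below 25% or above 175%, edge rows of some plates excepted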;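 also: Galphao activated by GDP with aluminum fluoride before binding; 100% = wells without compound and 0% = beads without RGS; some results beyond the cut were filed as inactive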
Target sequence (O15492 whole entry, looked up): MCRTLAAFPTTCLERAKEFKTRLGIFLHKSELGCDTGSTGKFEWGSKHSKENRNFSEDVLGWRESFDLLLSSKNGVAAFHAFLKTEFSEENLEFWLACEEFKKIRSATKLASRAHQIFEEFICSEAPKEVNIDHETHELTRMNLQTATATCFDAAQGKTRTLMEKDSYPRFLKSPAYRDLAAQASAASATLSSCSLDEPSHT
Target sequence (P09471 whole entry, looked up): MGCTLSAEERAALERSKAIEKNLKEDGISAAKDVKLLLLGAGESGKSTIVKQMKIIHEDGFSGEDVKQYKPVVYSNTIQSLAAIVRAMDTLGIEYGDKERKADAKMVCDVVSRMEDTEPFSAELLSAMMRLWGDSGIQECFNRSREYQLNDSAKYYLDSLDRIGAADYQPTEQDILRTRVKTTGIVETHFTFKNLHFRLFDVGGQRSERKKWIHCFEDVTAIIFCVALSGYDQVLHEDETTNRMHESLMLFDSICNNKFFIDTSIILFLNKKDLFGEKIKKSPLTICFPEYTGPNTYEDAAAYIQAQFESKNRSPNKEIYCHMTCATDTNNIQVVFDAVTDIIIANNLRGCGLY
HSV augment = HSV replication enhancement. HSV replication augmentation in cells, fold increase. maximum fold increase. actives 0.005% (n = 220,000);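 active = peak rise of 1.5-fold or more in the series; inconclusive = self-fluorescent or not available for retest; tested in PC3 cells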;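 also: first round at 10 µM; read as green reporter fluorescence; hits show the peak of a series up to 25 µM; 1 = signal of infected wells without compound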
PKD1 inh = blocks activity of human protein kinase D1; Q15139; PKD1 kinase fluorescence polarization assay; inhibition, %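 (about 10 µM by stock and volumes)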; actives 0.056% (n = 200,000); AID 797;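 active = inhibition of 50% or more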;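 also: controls were vehicle for no effect and a reference inhibitor for full effect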
Insulin prom inh = TRM-6 insulin promoter activity inhibition; TRM-6 cells (human fetal islet line), insulin promoter-eGFP reporter, imaging; reporter expression induced with tamoxifen; actives 0.9% (n = 130,000); inhibition, % at 2 µM; AID 1273;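 active = inhibition above the mean plus 3 SD, with well images judged a real hit on visual review, cut at about 60% in these data, passing the limit was not always enough; inconclusive = inhibition over the cutoff but images rejected on review; inactive = inhibition not above the cutoff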
GALR2 ag = activates the human galanin receptor 2; O43603; GALR2-expressing cells, agonist activation read-out; activation, %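 (tested at 5 µM)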; actives 0.48% (n = 140,000); AID 803;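 active = above mean plus 3 SD of all compounds, about 5% in these data, not always enough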;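 also: 0% = vehicle buffer wells and 100% = reference agonist at full effect; tested in CHO reporter cells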
Target sequence (O43603 whole entry, looked up): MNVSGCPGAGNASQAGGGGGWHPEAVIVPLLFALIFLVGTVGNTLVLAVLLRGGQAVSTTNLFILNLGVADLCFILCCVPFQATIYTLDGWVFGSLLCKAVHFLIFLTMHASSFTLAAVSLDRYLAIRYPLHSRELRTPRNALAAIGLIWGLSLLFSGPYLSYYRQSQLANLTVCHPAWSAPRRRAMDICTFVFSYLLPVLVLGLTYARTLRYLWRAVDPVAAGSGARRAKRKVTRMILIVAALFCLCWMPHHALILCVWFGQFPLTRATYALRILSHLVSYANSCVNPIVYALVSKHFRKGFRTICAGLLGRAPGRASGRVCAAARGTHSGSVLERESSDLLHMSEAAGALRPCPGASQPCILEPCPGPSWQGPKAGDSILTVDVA
Insulin prom inh cell count = further read-out of Insulin prom inh, marked with its call; normalized cell count, %; measured here: cell count, toxicity; reference of the scale not given here;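 cells exposed to compound for 48 h; stained nuclei by imaging scaled within each plate; lower means fewer cells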
HSV augment primary fold = also measured in HSV augment; calls as there; fold increase; compound at 10 µM; measured here: primary screen fold increase 10 uM; tested in PC3 cells;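 GFP signal in the first replicate; 1 = infected wells without compound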
* hit, by the source's call; i = inactive; ? = inconclusive; / = not tested or not shown.

SMILES	RGS16-Gao	HSV augment	HSV augment primary fold	PKD1 inh	Insulin prom inh	Insulin prom inh cell count	GALR2 ag
Cc1cc(C(=O)N/N=C2\CC(=O)c3ccccc32)c(C)n1-c1ccc(F)cc1	103	i	1	/	/	/	/
COc1ccc(C(=O)COC(=O)CCC(=O)c2cccs2)cc1	146	i	0.98	11	45	57	/
Cc1cccc(C)c1OCc1nnc(SCC(=O)Nc2nccs2)o1	100	i	1	-6	/	/	-0.5
CCCC(c1nnnn1Cc1cccs1)N1CCN(C)CC1 (stereo not drawn)	103	i	0.89	0	/	/	/
CCn1c(SCC(=O)Nc2ccc(N(C)C)cc2)nnc1-c1cccc(C)c1	102	i	0.95	11	31	104	-2.5
C#CCOCCOCCOCCNc1nc(N2CCN(C(=O)[C@H]([C@@H](C)CC)n3cc([C@@H](N)CO)nn3)CC2)nc(N2CCN(C(=O)[C@H]([C@@H](C)CC)n3cc([C@@H](N)CO)nn3)CC2)n1	100	i	0.78	/	/	/	/
CNC(=S)NNC(=O)c1sccc1OCc1cccc(C(F)(F)F)c1	87	i	0.86	3	/	/	-1.2
Cc1cc(C)c(NC(=S)N2CCCC2C(=O)O)c(C)c1 (stereo not drawn)	91	i	0.88	-5	/	/	-0.7
COC(=O)[C@@H]1C[C@@]2(O)[C@H](O)[C@H](O)[C@H](O)C[C@H]2N1Cc1cc(F)ccc1F	106	i	0.96	/	/	/	/
Fc1cc2[nH]c(=S)[nH]c2cc1Cl	100	i	1.1	/	/	/	/
CCn1c(SCC(=O)c2ccccc2)nc2ccccc2c1=O	107	i	1	1	/	/	/
CC(C)(C)OC(=O)NCCc1nnc(SCC(=O)Nc2cccc(Cl)c2)o1	101	i	0.93	10	9	95	-4.8
CCOC(=O)/C(=C/Nc1ccccc1)[N+](=O)[O-]	107	i	0.99	0	-18	121	-1.9
CC1(O)c2ccccc2C(=O)N1CCc1ccccc1F (stereo not drawn)	101	i	0.9	11	-25	184	-4.1
Cc1ccc(NC(=O)CN2C(=O)S/C(=C\c3ccccn3)C2=O)cc1	101	i	0.92	-4	/	/	/
CCOC(=O)Cn1cc(/C=C(\C#N)C(=O)N2CCOCC2)c2ccccc21	91	i	0.92	/	/	/	/
COc1cc(/C=N/n2c(C)n[nH]c2=S)ccc1OCc1ccc(F)cc1	112	i	1.1	-7	-14	105	0.6
CCN(CCCNC(=O)CCCN1C(=O)COc2ccc(C)cc21)c1cccc(C)c1	88	i	1.1	-4	/	/	-0.3
OCCN(CCO)c1nc(-c2ccccc2)nc2c1oc1ccccc12	108	i	0.89	-3	/	/	/
O=S(=O)(Cc1ccccc1)Nc1ccc(Br)cn1	98	i	1.1	-83	-44	62	/
S=c1nc(-c2csc3c2CCCC3)[nH][nH]1	87	i	0.83	1	18	90	/
C=CCN(CC=C)C(=O)c1cccc(S(=O)(=O)N2c3ccccc3CC2C)c1 (stereo not drawn)	103	i	0.95	/	/	/	/
COc1ccccc1OCC(=O)Nc1ccc(N2CCCCC2)cc1	116	i	0.98	4	9	120	/
Cn1c(C(=O)N2CCCC(C(=O)NCc3cccs3)C2)cc2sccc21 (stereo not drawn)	104	i	0.9	-2	/	/	-0.8

Shown bar-delimited: part of the list above
SMILES | RGS16-Gao | HSV augment | HSV augment primary fold | PKD1 inh | Insulin prom inh | Insulin prom inh cell count | GALR2 ag
CCn1c(SCC(=O)c2ccccc2)nc2ccccc2c1=O | 107 | i | 1 | 1 | / | / | /
CCn1c(SCC(=O)Nc2ccc(N(C)C)cc2)nnc1-c1cccc(C)c1 | 102 | i | 0.95 | 11 | 31 | 104 | -2.5
Cc1cc(C(=O)N/N=C2\CC(=O)c3ccccc32)c(C)n1-c1ccc(F)cc1 | 103 | i | 1 | / | / | / | /

The results go on:
SMILES	RGS16-Gao	HSV augment	HSV augment primary fold	PKD1 inh	Insulin prom inh	Insulin prom inh cell count	GALR2 ag
CN1C(C(=O)c2ccccc2)=C(N)c2ccccc2S1(=O)=O	98	i	0.97	-4	/	/	/
CC1(C)CC(=NOC(=O)c2ccccc2)CC(C)(C)N1	109	i	1	9	-5	59	-1.6
COC(=O)CN1C(=O)C(O)(CC(=O)c2ccc(C)cc2)c2ccccc21 (stereo not drawn)	105	i	0.96	-10	30	105	-1.3
Cc1nn(Cc2ccccc2Cl)c2sc(C(=O)OC3CCCC3=O)cc12 (stereo not drawn)	99	i	0.82	-11	15	87	0.1
CCOc1ccc(-n2c(N)c(C(=O)NCc3ccco3)c3nc4ccccc4nc32)cc1	96	i	0.98	1	-151	105	4.9
CCOc1cc(/C=C/c2ccc3cccc([N+](=O)[O-])c3n2)ccc1OCC(=O)N(C)C	112	i	0.61	-1	45	170	/
COc1ccccc1NC(=O)COc1ccc(C(=O)NC2CCCc3ccccc32)cc1OC (stereo not drawn)	105	i	0.85	-5	/	/	/
CN(C)CCCOc1ccc2c(c1)Sc1ccccc1CC2=O	89	i	0.86	15	19	103	-0.6
CCOC(=O)C1CCc2sc(N)c(C#N)c21 (stereo not drawn)	95	i	0.82	-3	3	119	-2.2
N=C1C(c2nc3ccccc3[nH]2)=C(O)CN1C1CCCCC1	113	i	0.98	/	/	/	/
O=C(CCCOc1ccc(Cl)cc1Cl)Nc1ccccc1C(=O)O	105	i	0.92	/	/	/	/
CN(C)CC(=O)Nc1nc(-c2ccccc2)cs1	151	i	1.1	3	16	71	-0.9

An excerpt from above in order of the HSV augment primary fold value, descending:
mol,HSV augment primary fold
CC1(C)CC(=NOC(=O)c2ccccc2)CC(C)(C)N1,1
CCOc1ccc(-n2c(N)c(C(=O)NCc3ccco3)c3nc4ccccc4nc32)cc1,0.98
CN1C(C(=O)c2ccccc2)=C(N)c2ccccc2S1(=O)=O,0.97
O=C(CCCOc1ccc(Cl)cc1Cl)Nc1ccccc1C(=O)O,0.92
CN(C)CCCOc1ccc2c(c1)Sc1ccccc1CC2=O,0.86
CCOC(=O)C1CCc2sc(N)c(C#N)c21 (stereo not drawn),0.82
CCOc1cc(/C=C/c2ccc3cccc([N+](=O)[O-])c3n2)ccc1OCC(=O)N(C)C,0.61

Remaining list, next part
SMILES	RGS16-Gao	HSV augment	HSV augment primary fold	PKD1 inh	Insulin prom inh	Insulin prom inh cell count	GALR2 ag
O=C(NCc1ccc(Cl)cc1Cl)c1ccc2nc[nH]c2c1	102	i	0.99	-4	0	117	-2.2
CCSc1nnc(NC(=O)c2cc3c(s2)CCCC3)s1	78	i	1.1	1	/	/	0.8
O=C(Nc1cc(Oc2ccccc2)cc([N+](=O)[O-])c1)C12CC3CC(C1)CC(n1cnc(Cl)n1)(C3)C2	102	i	0.97	2	/	/	-1.8
Cc1c(C(=O)NC2CCCc3ccccc32)oc2ccc(S(=O)(=O)N3CCOCC3)cc12 (stereo not drawn)	141	i	0.93	4	-65	90	-1.9
COC(=O)[C@H](Cc1ccccc1)NC(=O)NCc1ccccc1OC	100	i	0.89	-4	-31	158	0.3
CCNc1ccc(C(=O)OCC(=O)c2cc(C)n(Cc3ccc4c(c3)OCO4)c2C)cc1[N+](=O)[O-]	104	i	0.88	-13	17	139	-1.7
Fc1ccc(COc2ccc(Cl)cc2/C=N/Nc2nc(N3CCCC3)nc(N3CCCC3)n2)cc1	94	i	0.87	-7	i	50	-1.0
O=C(Cn1nc(Cc2cccnc2)c2ccccc2c1=O)NCC1COc2ccccc2O1 (stereo not drawn)	85	i	1.1	6	/	/	-2.0
Cc1ccc(C(C(=O)NC2CCCCC2)N(Cc2ccco2)C(=O)C2COc3ccccc3O2)o1 (stereo not drawn)	103	i	0.79	0	-43	63	-3.5
COc1ccccc1N1CCN(C(CNS(=O)(=O)c2ccccc2)c2cccnc2)CC1 (stereo not drawn)	96	i	0.93	-3	10	128	10
CC(=O)Nc1ccc(S(=O)(=O)Oc2cccc(/C=C3\SC(N)=NC3=O)c2)cc1	105	i	0.84	9	-7	104	/
O=C(CCCCCN1C(=O)c2ccccc2C1=O)Nc1nccs1	105	i	1.1	3	39	104	-1.9
OCC1(CCc2ccccc2)CCN(Cc2cc(F)ccc2-n2cccn2)CC1	101	i	1	-1	/	/	/
CC(C)(C)Cc1nnc(NC(=O)c2ccc([N+](=O)[O-])cc2)s1	76	i	1.1	-7	/	/	0.4
O=S(=O)(c1cnc(Cl)c(Br)c1)N1CCCCCC1	105	i	0.87	4	-4	174	-1.4
Cc1ccc(-n2c(-c3ccco3)nc3nc4ccccc4nc32)cc1	108	i	0.91	0	7	102	-2.9
CCN1CC(C)C(O)(c2ccccc2)CC1C (stereo not drawn)	119	i	0.94	-12	-59	41	-1.1
CCCC(CCC)C(=O)NC1CCN(Cc2ccccc2)CC1	104	i	1	1	/	/	/
CC(C)C(=O)N=c1sc2cccc(F)c2n1C	102	i	1	/	/	/	/
CNc1nc(-c2cccs2)cc(C(F)(F)F)c1C#N	102	i	1.1	/	/	/	/
CC(=O)Nc1cccc(NC(=O)CSc2nnnn2-c2ccc3c(c2)OCO3)c1	98	i	1	/	/	/	/
c1ccc2c(c1)OC(CCCN1CCCCC1)c1ccccc1S2 (stereo not drawn)	73	i	0.84	3	-140	59	-2.2
Cc1ccc(C)c(SCC(=O)Nc2cccnc2Cl)c1	127	i	0.93	0	-9	86	/
CCNC(=O)c1ccc2c(c1)C1C3CCC(C3)C1C(c1ccccc1)N2 (stereo not drawn)	98	i	0.93	1	-8	136	-0.7
CSCCC(NC(=O)C1CC1)c1nc2ccccc2[nH]1 (stereo not drawn)	94	i	0.92	-6	12	84	-2.4
CC(=O)CC1(C)OC(N)=C(C#N)C1(C#N)C#N (stereo not drawn)	93	?	/	-3	/	/	0.1
COC(=O)CSc1nnc(-c2cccc(NC(=O)c3ccc(C)cc3)c2)n1C	94	i	0.91	4	38	98	-1.9
CCN1CCC[C@H]1CNC(=O)c1cc(S(N)(=O)=O)ccc1OC	90	i	0.77	/	/	/	/
Cc1cc(C)nc(-n2cc(C(=O)c3cc(F)ccc3O)cn2)n1	95	i	1	-8	-26	89	-0.3
Cc1ccc(-c2cnco2)cc1	98	i	1.1	/	/	/	/
COc1cccc(CNc2nc(SC)ncc2CO)c1	100	i	0.99	-2	17	76	-0.8
COc1cccc(-n2c(SCc3c(C)noc3C)nnc2-c2cccc(S(=O)(=O)N(C)C)c2)c1	102	i	1	-3	-32	81	-2.9
COc1ccc(-n2c(Cc3cccn3C)nnc2SCC(=O)Nc2cccc(Cl)c2)cc1	103	i	1	-15	/	/	-1.0
Oc1ccccc1/C=N/[n+]1ccccc1	104	i	0.94	/	/	/	/
Cc1[nH]n(-c2ccccc2)c(=O)c1/C=N/N(C)c1ccccc1	96	i	0.89	2	3	88	-1.4
C#CCOc1ccc(Cl)cc1/C=N/O	96	i	0.96	12	25	92	-3.5
O=C(NCCN1C(=O)C2C3C=CC(C3)C2C1=O)Nc1cccnc1 (stereo not drawn)	98	i	0.92	3	/	/	-2.5
CC(C)/C=N/NC(=O)c1ccc(Cl)cc1	105	i	1.1	1	17	107	-0.2
O=C1CN(C(=O)CSc2nc3ccccc3c(=O)n2CC2CCCO2)c2ccccc2N1 (stereo not drawn)	92	i	0.99	-3	-73	98	/
Cc1ccc(NC(=O)c2ccccc2NC(=O)Cc2ccccc2)cc1	109	i	0.92	-2	-33	103	-0.3
CN(C)c1cc[n+](CC(=O)Nc2ccc(OC(F)F)cc2)cc1	79	i	0.9	/	/	/	/
O=C(COc1cccc2cccnc12)N/N=C1\SCC(=O)N1Cc1ccccc1	125	i	0.89	-1	/	/	-1.9
COc1ccc(OC)c(NC(=S)NCCCN2CCOCC2)c1	92	i	1	-7	11	102	-0.2
Cc1c(-n2c(-c3ccccc3)nc3ccccc3c2=O)c(=O)n(-c2ccccc2)n1C	105	i	1	-1	-24	101	/
O=C(N/C(=C/c1cccnc1)C(=O)N1CCOCC1)c1ccco1	80	i	1	-3	0	98	-0.6
CCN(CC)C(=O)c1ccc(-c2ccccc2)cc1	101	i	0.92	-8	50	81	-1.4
CS(=O)(=O)c1ccc(C(=O)NC2CCOC2=O)cc1 (stereo not drawn)	243	i	0.83	-1	/	/	-3.4
CC(C)N(Cc1ccccc1)C(=S)Nc1ccccc1F	102	i	0.87	/	/	/	/
Cc1ccc(-n2ncc3c(SCc4cccc(C)c4)ncnc32)cc1	101	i	0.98	4	/	/	0.2
Cc1ccc(-n2c(Cc3cccn3C)nnc2SCC(=O)Nc2cc(C)on2)cc1	102	i	0.89	-3	/	/	-1.9
O=S(=O)(c1ccccc1)c1nc(NCc2cccnc2)sc1Cl	100	i	1	-4	67	160	/
COc1ccc(C(C)=O)cc1COC(=O)c1c(C)noc1C	78	i	0.89	9	/	/	0.1

Compound activity (PubChem)
